Compound activity deposited in PubChem by Broad Institute.
Vaccinia inh: Vaccinia orthopox stage-specific inhibition | activity change (mCherry), % (no concentration beside the values) | Vaccinia-infected cells, mCherry/Venus stage reporter fluorescence; hits give low values; some inactives read as strong as hits | actives 0.01% (n = 89,000);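 active = mCherry past -33% and 40 or more points under the early reporter, replicates agreeing; inconclusive = past -33% without that gap or agreement; tested in A549 cells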;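 note: scaled between vehicle wells and reference inhibitor wells; 23 nL library stock went into each well; one replicate is shown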
Vaccinia inh Venus: recorded beside Vaccinia inh, whose call it bears; activity change (Venus), %; measured here: Venus reporter, other viral stage;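 negative = less Venus signal; first of two replicates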
The depositor's hits bear a star; u = inconclusive; x = no result given. An excerpt; rates above refer to the full screens.

compound	Vaccinia inh	Vaccinia inh Venus
COc1ccc(NC(=O)N(C)C[C@@H]2Oc3c(NC(=O)NC4CCCCC4)cccc3C(=O)N([C@@H](C)CO)C[C@H]2C)cc1	0	7
Cc1ccc(S(=O)(=O)N[C@@H]2C=C[C@@H](CC(=O)NCCCN(C)C)O[C@@H]2CO)cc1	-5	1
C[C@@H]1CN([C@H](C)CO)C(=O)c2cc(NC(=O)NC3CCCCC3)ccc2O[C@@H](C)CCCCO[C@H]1CN(C)C(=O)NC1CCCCC1	u	x
OC[C@H]1[C@@H]2c3ccccc3NC[C@@H]2N1CC1CCCCC1	14	2
C[C@H]1CN([C@@H](C)CO)S(=O)(=O)c2ccc(-c3ccc(F)cc3)cc2O[C@@H]1CN(C)C(=O)C1CCCCC1	-5	-2
COc1cccc(NC(=O)N[C@@H]2CC[C@@H](CC(=O)N3CCOCC3)O[C@H]2CO)c1	8	5
CN(C)C(=O)c1ccc(-c2ccc([C@@H]3[C@H]4CN(S(C)(=O)=O)CCCCN4[C@H]3CO)cc2)cc1	37	16
COc1ccc(CN(C)C[C@H]2Oc3ccc(NC(=O)CCCCCC(=O)Nc4ccccc4N)cc3CC(=O)N([C@@H](C)CO)C[C@@H]2C)cc1	25	12
C[C@@H]1CN([C@@H](C)CO)C(=O)c2ccccc2-c2ccccc2CO[C@H]1CN(C)S(=O)(=O)c1cccc(C#N)c1	-4	-10
CC(=O)N1[C@H](CN(C(=O)c2ccccc2)C(C)C)[C@@H](c2ccccc2)[C@@H]1CO	14	11
Cc1noc(C)c1S(=O)(=O)Nc1ccc2c(c1)C(=O)N([C@@H](C)CO)C[C@@H](C)[C@H](CN(C)C(=O)NC(C)C)OCCCC[C@@H](C)O2	3	3
COc1cccc(NC(=O)N[C@@H]2C=C[C@@H](CC(=O)NCc3ccccn3)O[C@@H]2CO)c1	2	13
N#Cc1ccc(-c2ccc3c(c2)[C@@H]2[C@@H](CCN2C(=O)C2CC2)[C@@H](CO)N3)cc1	-23	-6
CN(C)CC(=O)N1[C@H](C#N)[C@H](c2ccc(C#CC3CCCC3)cc2)[C@@H]1CO	-14	-8
C[C@H](CO)N1C[C@H](C)[C@@H](CN(C)Cc2ccncc2)Oc2ccc(NC(=O)CCC(F)(F)F)cc2C1=O	9	11
CCc1nc(N2[C@H](C#N)[C@@H](c3ccccc3-c3ccccc3C)[C@H]2CO)sc1C	-10	-1

Reformatted: 3 of the compounds above.
Under each structure: Vaccinia inh | Vaccinia inh Venus
N#Cc1ccc(-c2ccc3c(c2)[C@@H]2[C@@H](CCN2C(=O)C2CC2)[C@@H](CO)N3)cc1
→ -23 | -6
CN(C)CC(=O)N1[C@H](C#N)[C@H](c2ccc(C#CC3CCCC3)cc2)[C@@H]1CO
→ -14 | -8
C[C@H](CO)N1C[C@H](C)[C@@H](CN(C)Cc2ccncc2)Oc2ccc(NC(=O)CCC(F)(F)F)cc2C1=O
→ 9 | 11

Next part:
compound	Vaccinia inh	Vaccinia inh Venus
O=S(=O)(c1ccc(F)cc1)N1CC[C@@H]2[C@@H](CO)Nc3ccc(Br)cc3[C@@H]21	-28	-30
O=C(N[C@@H]1CC[C@H](CC(=O)N2CCN(c3ccccc3)CC2)O[C@@H]1CO)c1ccccc1	0	7
O=C(C[C@@H]1CC[C@H]2[C@@H](COC[C@H](O)CN2C(=O)Nc2ccc(Cl)c(Cl)c2)O1)NCc1ccc(Cl)c(Cl)c1	-7	-9
COCC(=O)N1CC2(CN(C(=O)c3ccccn3)C2)c2c(n(C)c3cc(OC)ccc23)[C@H]1CO	13	-4
Cc1noc(C)c1S(=O)(=O)N(C)C[C@H]1OCCCC[C@H](C)Oc2ccc(NC(=O)Nc3cccc4ccccc34)cc2C(=O)N([C@H](C)CO)C[C@H]1C	31	30
CS(=O)(=O)Nc1ccc2c(c1)[C@@H]1C[C@@H](CC(=O)NCC(F)(F)F)O[C@H](CO)[C@@H]1O2	8	8
O=C(c1cccnc1)N1CC(=O)N2[C@@H](CO)[C@@H](c3ccc(-c4ccc(F)cc4)cc3)[C@@H]2C1	0	-3
CO[C@@H](CN(C)C(=O)c1ccccc1F)[C@H](C)CN([C@H](C)CO)S(=O)(=O)c1ccccc1	12	10
COc1cccc(S(=O)(=O)N2C[C@H](O)COC[C@@H]3O[C@@H](CC(=O)Nc4ccccc4)CC[C@H]32)c1	-1	-3
COc1ccc(S(=O)(=O)N2CCCCN3[C@H](CO)[C@@H](c4ccc(C#CC(C)C)cc4)[C@@H]3C2)cc1	-34	-42
CO[C@@H](CN(C)S(=O)(=O)c1ccc(F)cc1)[C@@H](C)CN(C(=O)Nc1ccccc1F)[C@@H](C)CO	-15	-22
COc1ccc2c3c([nH]c2c1)[C@H](CO)N(Cc1cc(F)ccc1F)CC31CN(C(=O)CN(C)C)C1	19	14
C[C@H](CO)N1C[C@H](C)[C@@H](CN(C)C(=O)Nc2ccc(F)cc2)Oc2ccc(NC(=O)C3CC3)cc2CC1=O	2	4
CCC(=O)N1CC(=O)N2[C@H](CO)[C@@H](c3ccc(C#CCc4ccccc4)cc3)[C@H]2C1	22	12
CO[C@H]1CN(C)C(=O)c2ccc(NS(=O)(=O)c3ccccc3)cc2OC[C@@H](C)N(Cc2cccnc2)C[C@@H]1C	-8	-3
O=C(C[C@@H]1C[C@H]2c3cc(NC(=O)Nc4ccccc4F)ccc3O[C@H]2[C@@H](CO)O1)NCc1cc(F)ccc1F	3	-2

The closing 4 records of the part before are carried over, then new ones follow:
compound	Vaccinia inh	Vaccinia inh Venus
C[C@H](CO)N1C[C@H](C)[C@@H](CN(C)C(=O)Nc2ccc(F)cc2)Oc2ccc(NC(=O)C3CC3)cc2CC1=O	2	4
CCC(=O)N1CC(=O)N2[C@H](CO)[C@@H](c3ccc(C#CCc4ccccc4)cc3)[C@H]2C1	22	12
CO[C@H]1CN(C)C(=O)c2ccc(NS(=O)(=O)c3ccccc3)cc2OC[C@@H](C)N(Cc2cccnc2)C[C@@H]1C	-8	-3
O=C(C[C@@H]1C[C@H]2c3cc(NC(=O)Nc4ccccc4F)ccc3O[C@H]2[C@@H](CO)O1)NCc1cc(F)ccc1F	3	-2
C[C@@H]1CN([C@@H](C)CO)C(=O)c2cc(Br)cnc2O[C@H]1CN(C)C(=O)CCN1CCCCC1	2	4
CCCNC(=O)N1[C@H](CO)[C@H](c2ccccc2C2=CCCC2)[C@@H]1C#N	-21	-6
COc1ccc2c3c(n(C)c2c1)[C@H](CO)N(C(=O)c1ccncc1)CC31CN(C(C)=O)C1	2	-2
CCNC(=O)C[C@H]1CC[C@@H](NC(=O)C2CCOCC2)[C@@H](CO)O1	8	1
COCC#Cc1ccc2c(c1)O[C@@H](CN(C)CC1CC1)[C@@H](C)CN([C@@H](C)CO)S2(=O)=O	-2	1
CNC[C@@H]1Oc2cc(C#Cc3ccc(OC)cc3)ccc2S(=O)(=O)N([C@H](C)CO)C[C@H]1C	-1	7
CCCC#Cc1cnc2c(c1)C(=O)N([C@H](C)CO)C[C@@H](C)[C@@H](CN(C)C(=O)NCCC)O2	-4	-6
C/C=C/c1ccc2c(c1)O[C@@H](CN(C)C(=O)COC)[C@H](C)CN([C@H](C)CO)S2(=O)=O	12	6
C[C@H](CO)N1C[C@H](C)[C@H](CN(C)C(=O)Nc2cccc3ccccc23)OCCCC[C@H](C)Oc2ccc(NS(=O)(=O)c3cccs3)cc2C1=O	41	34
COc1ccc(CN(C)C[C@H]2OCCCC[C@@H](C)Oc3ccc(NS(C)(=O)=O)cc3C(=O)N([C@@H](C)CO)C[C@H]2C)cc1	-11	4
C[C@@H]1CN([C@@H](C)CO)C(=O)c2cc(C3=CCCCC3)cnc2O[C@@H]1CN(C)C(=O)Cc1cccnc1	9	3
CN1CCN(C(=O)C[C@@H]2CC[C@H]3[C@@H](COC[C@@H](O)CN3CC3CCCCC3)O2)CC1	-9	-14
O=C(NCC[C@@H]1CC[C@@H](NS(=O)(=O)Cc2ccccc2)[C@H](CO)O1)C1CCC1	2	5
CC(C)(C)S(=O)N1Cc2cc(C(=O)NCc3ccc4c(c3)OCO4)nc(-c3cccc(C#CCC4CCCC4)c3)c2[C@H]1CCO (stereo not given in full)	4	2
C[C@@H]1CN([C@H](C)CO)C(=O)Cc2cc(NC(=O)Nc3ccccc3)ccc2O[C@H]1CN(C)Cc1ccccc1	-9	-2
CC(=O)N(C)C[C@H]1OCc2ccccc2-c2ccccc2C(=O)N([C@H](C)CO)C[C@H]1C	20	9
COc1ccc(NC(=O)N2CCCCN3[C@H](CO)[C@H](c4ccc(-c5ccccc5F)cc4)[C@@H]3C2)cc1	u	x
O=C(C[C@H]1CC[C@@H]2[C@H](COC[C@H](O)CN2Cc2cccc(Cl)c2)O1)N1CCOCC1	2	1
O=C(C[C@H]1C[C@@H]2c3cc(NC(=O)Cc4ccncc4)ccc3O[C@@H]2[C@H](CO)O1)NCCN1CCCCC1	4	13
CCCC(=O)Nc1ccc2c(c1)C(=O)N(C)[C@H]1CC[C@@H](CC(=O)NC3CCCC3)O[C@@H]1CO2	12	8
O=C(Cc1ccccn1)N[C@H]1CC[C@H](CCNC(=O)c2cc(Cl)cc(Cl)c2)O[C@@H]1CO	-10	8
C[C@@H]1CN([C@H](C)CO)C(=O)c2cccc(NC(=O)C3CC3)c2O[C@H]1CN(C)S(C)(=O)=O	-3	1
C[C@@H]1CN([C@@H](C)CO)C(=O)Cc2cc(NS(C)(=O)=O)ccc2O[C@H]1CN(C)Cc1ccc2c(c1)OCO2	5	3
COc1ccc(-c2cnc3c(c2)C(=O)N([C@@H](C)CO)C[C@@H](C)[C@H](CN(C)C(=O)Cc2cccnc2)O3)cc1	7	3
COc1ccc(CN(C)C[C@@H]2OCCCC[C@@H](C)Oc3ccc(NC(=O)Nc4ccc(OC)cc4)cc3C(=O)N([C@H](C)CO)C[C@@H]2C)cc1	-4	-17
C[C@H](CO)N1C[C@H](C)[C@H](CN(C)C(=O)Nc2ccnc(N3CCOCC3)c2)OCc2ccccc2-c2ccccc2C1=O	17	4
C[C@H](CO)N1C[C@H](C)[C@@H](CN(C)CC2CCCCC2)Oc2c(NC(=O)C3CCOCC3)cccc2C1=O	8	5
C[C@@H]1CN([C@@H](C)CO)C(=O)CCCn2nncc2CO[C@H]1CN(C)C(=O)Nc1ccccc1F	13	10
O=C(NCC[C@@H]1CC[C@H](NS(=O)(=O)c2ccccc2)[C@H](CO)O1)c1ccccc1F	2	-4
CC(C)C#Cc1cnc2c(c1)C(=O)N([C@H](C)CO)C[C@@H](C)[C@@H](CN(C)Cc1cncnc1)O2	5	5
O=C([C@H]1[C@H](CO)[C@H]2Cn3c(ccc(C4=CCCC4)c3=O)[C@H]2N1CC1CC1)N1CCCCC1	-2	-1
C[C@H](CO)N1C[C@H](C)[C@@H](CN(C)C(=O)Nc2ccc(C(F)(F)F)cc2)Oc2c(NC(=O)C3CCCCC3)cccc2C1=O	-17	-6
CC(C)CC#Cc1ccc2c(c1)O[C@@H](CN(C)C(=O)NC(C)C)[C@@H](C)CN([C@@H](C)CO)S2(=O)=O	u	x
C[C@@H]1CN([C@@H](C)CO)C(=O)c2cc(NC(=O)CCCN(C)C)ccc2O[C@@H]1CN(C)Cc1ccc(Cl)c(Cl)c1	u	x
C[C@@H]1CN([C@@H](C)CO)C(=O)c2c(c3ccccc3n2C)-c2ccccc2CO[C@@H]1CN(C)C(=O)Nc1ccc(F)cc1	u	x
C[C@@H]1CN([C@@H](C)CO)C(=O)c2cc(NS(=O)(=O)c3ccc(Cl)cc3)ccc2O[C@@H]1CN(C)Cc1ccc(C(=O)Nc2ccccc2N)cc1	-24	-16
CCN1[C@H](C(=O)NCc2ccccn2)[C@@H](CO)[C@@H]2Cn3c(ccc(C4=CCCCC4)c3=O)[C@@H]21	7	9
COc1ccc(S(=O)(=O)N2CCCCN3[C@@H](CO)[C@H](c4ccc(C#CC5CC5)cc4)[C@@H]3C2)cc1	u	x
COc1ccc(-c2ccc3c(c2)O[C@@H](CN(C)C(C)=O)[C@H](C)CN([C@@H](C)CO)S3(=O)=O)cc1	12	14
C[C@@H]1CN([C@@H](C)CO)C(=O)c2cc(NS(=O)(=O)c3ccc(F)cc3)ccc2O[C@H]1CN(C)Cc1ccc(Oc2ccccc2)cc1	-4	6
CCO[C@H]1OC(C(=O)N2CCN(C)CC2)=C[C@@H](c2ccc(C(F)(F)F)cc2)[C@@H]1CCCO	6	14
COc1ccc(S(=O)(=O)Nc2ccc3c(c2)C(=O)N([C@@H](C)CO)C[C@@H](C)[C@@H](CN(C)C(=O)NC2CCCCC2)OCCCC[C@@H](C)O3)cc1	u	x
C#CCNC(=O)C1=C[C@@H](c2cn(C(C)=O)c3ccccc23)C[C@@H](OCCCCO)O1	11	15
Cc1ccc(S(=O)(=O)N[C@H]2CC[C@H](CCNC(=O)c3ccc4c(c3)OCO4)O[C@@H]2CO)cc1	-21	-2
C[C@@H]1CN([C@H](C)CO)C(=O)c2cc(NS(=O)(=O)c3ccc(F)cc3)ccc2O[C@@H]1CN(C)Cc1ccccc1	-11	1
COc1ccc2c3c(n(C)c2c1)[C@H](CO)N(C(=O)Cc1ccccc1)CC31CCN(C(=O)Cc2ccccc2)CC1	-29	-28
O=C(C[C@@H]1C=C[C@@H](NC(=O)C2CCC2)[C@H](CO)O1)NCc1ccccc1Cl	11	4
